TRPML1 inh = qHTS for Inhibitors of the Human Mucolipin Transient Receptor Potential 1 (TRPML1); activity change, negative = inhibition, % (no concentration beside the values); TRPML1-inducible cells, Ca2+ dye fluorescence, FDSS; stronger effect = lower value; inhibition of EC80 agonist-evoked calcium signal; 0.02% of 390,000 active; Mucolipin-1 (Homo sapiens), Q9GZU1; in the data active means activity change below about -50%; inconclusive means about -30% to -50%; inactive means above about -30%;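 further: stimulus is agonist 54-4 at its EC80 concentration; on the % scale 0 is the no-effect control and ±100 the full control effect; compound concentration not given in the record; the text of the record puts the active cut at -80%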
Target sequence (Q9GZU1 whole entry, looked up): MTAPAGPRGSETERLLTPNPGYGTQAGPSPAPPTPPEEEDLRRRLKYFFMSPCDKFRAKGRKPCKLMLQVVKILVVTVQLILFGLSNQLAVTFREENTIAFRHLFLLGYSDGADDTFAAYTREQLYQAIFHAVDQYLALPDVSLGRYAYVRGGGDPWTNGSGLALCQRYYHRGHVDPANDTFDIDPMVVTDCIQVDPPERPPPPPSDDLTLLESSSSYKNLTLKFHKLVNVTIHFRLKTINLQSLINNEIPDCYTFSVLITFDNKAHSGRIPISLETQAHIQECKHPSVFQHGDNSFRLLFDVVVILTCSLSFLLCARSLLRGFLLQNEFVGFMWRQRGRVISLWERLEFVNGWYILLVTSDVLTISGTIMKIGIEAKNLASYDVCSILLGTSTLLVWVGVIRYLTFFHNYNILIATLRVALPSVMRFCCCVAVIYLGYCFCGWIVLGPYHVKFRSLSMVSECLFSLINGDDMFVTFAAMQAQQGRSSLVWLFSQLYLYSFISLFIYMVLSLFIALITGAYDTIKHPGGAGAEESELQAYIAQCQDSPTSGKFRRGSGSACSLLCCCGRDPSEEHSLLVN
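TRPML1-DL cells, Tet-induced overnight (~16 h, 37 °C) at 1,500 cells/well, were loaded with Ca8 no-wash dye plus quencher for 45-90 min at room temperature. Compounds were pinned during FDSS kinetic reading; agonist 54-4 at EC80 (4 uM final) then added.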
D2 PAM = Beta-Arrestin HTS for Positive Allosteric Modulators of the Human D2 Dopamine Receptor: Potentiators; DiscoveRx D2 beta-arrestin cells, luminescence, 90 min; 100% = 57 uM dopamine signal; potentiation, % (no concentration beside the values); 0.23% of 360,000 active; active = potentiation of 50% or more; inconclusive = 30% to 50%; inactive = 30% or less;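 further: compound concentration not given in the record; tested on top of an EC20 dose of dopamine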
Target sequence (P14416 whole entry, looked up): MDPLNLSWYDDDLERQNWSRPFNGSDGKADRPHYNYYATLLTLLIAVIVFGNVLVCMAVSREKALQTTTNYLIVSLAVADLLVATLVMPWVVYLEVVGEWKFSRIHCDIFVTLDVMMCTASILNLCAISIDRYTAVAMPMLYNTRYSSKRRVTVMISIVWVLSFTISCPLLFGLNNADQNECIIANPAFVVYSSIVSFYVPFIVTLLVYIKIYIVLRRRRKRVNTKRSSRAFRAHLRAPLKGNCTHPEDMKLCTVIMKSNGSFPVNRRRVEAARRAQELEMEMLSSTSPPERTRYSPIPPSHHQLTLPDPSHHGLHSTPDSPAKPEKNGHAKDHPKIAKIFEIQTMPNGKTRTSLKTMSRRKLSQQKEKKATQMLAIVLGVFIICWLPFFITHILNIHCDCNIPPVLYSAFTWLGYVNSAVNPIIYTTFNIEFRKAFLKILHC
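PathHunter D2 cells, attached overnight at 37 deg C, received compound in DMSO plus dopamine at EC20 (50 nM final) for 90 min at 37 deg C. Beta-arrestin recruitment was read as luminescence after 1 h with detection reagent at ambient temperature.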
PINK1 modulator = A Quantitative High throughput Screen to Identify Chemical Modulators of PINK1 Expression | PINK1 immunofluorescence, high-content cytometry, 24 h | Potency, µM (titrated, usually from 76.6 µM), inactives show top-dose activation (PINK1 increase), actives largely listed as activators | 0.2% of 410,000 active | AID 624263, 2012; active = well fitted activation curve with a large enough effect; inconclusive = small, poorly fitted or top-dose-only effect; inactive = flat fitted curve, though single readings scatter; cell line not stated here;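 further: potency means the concentration at half of the fitted maximal effect; % of control where 0% means no effect; nearly all actives have a fitted effect of over 65% in size; a mitochondrial uncoupler was the plate control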
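PINK1 protein level read as immunofluorescence by microplate cytometer in a fixed, stained stable cell line after 24 h exposure to five compound concentrations, with CCCP as control.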
TRPML1 agonist = qHTS for Agonists of the Human Mucolipin Transient Receptor Potential 1 (TRPML1); TRPML1-expressing cells, Ca2+ dye fluorescence, FDSS; host cell line not named in the record; reference of the full effect not given here; activation, % (concentration not given with the values); 0.12% of 410,000 active; in the data active = activation above about 50%; inconclusive = about 30% to 50%; inactive = below about 30%; further: 0% is about no effect; the text of the record puts the active cut at 80%
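Calcium fluorescence on an FDSS kinetic reader gave the read-out. Tet-induced TRPML1-DL cells were plated overnight, dye-loaded (Ca8 with quencher, 45-90 min, room temperature, dark), then read 110 s after compound addition, and again 110 s after 4uM final 54-4 (EC80).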
Six1-Eya2 blk = qHTS Assay for Inhibitors of the Six1/Eya2 Interaction. Homeobox protein SIX1 (Homo sapiens) + Protein phosphatase EYA2 (Homo sapiens), …. AlphaScreen GST-Six1/His-Eya2 binding, biochemical; stronger effect = lower value; control for the full effect not named in the record. activity change, % (no concentration beside the values). 0.56% of 360,000 active. AID 651725, 2012; in the data active = activity change below about -65%; inconclusive = about -30% to -65%; inactive = above about -30%; further: on the % scale 0 is the no-effect control and ±100 the full control effect; compound concentration not given in the record
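Compounds are tested against tagged Six1 and Eya2 proteins bridged by glutathione donor and nickel acceptor beads; after a one-hour incubation at 37 °C without light, AlphaScreen emission is recorded.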
D2 agonist = Beta-Arrestin HTS for Positive Allosteric Modulators of the Human D2 Dopamine Receptor: Agonists; activation, % (test concentration not listed); DiscoveRx PathHunter D2 beta-arrestin, luminescence, 90 min; 100% = 57 uM dopamine signal; 0.084% of 360,000 active; in the data active = activation above about 40%; inconclusive = about 15% to 40%; inactive = below about 15%; further: compound concentration not given in the record; the text of the record calls up to 30% inactive
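Agonist mode: compounds alone added to overnight-plated D2 PathHunter cells for 90 min at 37 C, with 57 uM final dopamine (EC100) defining full response. Beta-arrestin recruitment detected by chemiluminescent reagent, read after 1 h at ambient temperature.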
* marks the source's active call; other numbers are inactive results; ? = inconclusive; . = not tested or not shown; [ ] = remark or other dose.

mol	TRPML1 inh	D2 PAM	PINK1 modulator	TRPML1 agonist	Six1-Eya2 blk	D2 agonist
COc1ccc(S(=O)(=O)N2CCC(C(=O)Nc3nccs3)CC2)cc1	-1	22	0.2%	-0.4	0	1.2
O=C(O)C1CC1c1ccc(Br)cc1 (stereo unspecified)	-17	-2	-0.7%	0.1	0	-2.4
COc1ccc(N(CC(=O)NCCC2=CCCCC2)S(=O)(=O)c2c(C)[nH]c(=O)[nH]c2=O)cc1	29	-11	0.4%	-0.2	1	-3.2
CCCCCCSc1ccc([C@H]2N[C@@](CC(C)C)(C(=O)OC)[C@H]3C(=O)N(C)C(=O)[C@@H]23)cc1	-12	-11	8.5%	2.2	0	-5.6
Cc1ccc(-n2nc3c(N4CCC(C(=O)NC(C)C)CC4)nnc(C)c3c2C)cc1	-5	.	2.1%	-0.5	.	.
Cn1c(=O)n(C)c2cc(N3CCCCC3)c(NC(=O)c3ccc(C(C)(C)C)cc3)cc21	-11	.	0.1%	-1.0	.	.
COc1ccc2oc(C(=O)OC(C)C(=O)NC3(C#N)CCCCC3)c(C)c2c1 (stereo unspecified)	-7	15	-0.9%	0.4	2	4.9
Cc1cc(=O)oc2c3c(ccc12)OC/C3=N/N	.	-15	1.4%	.	2	-6.0
COc1ccc(CCNC(=O)C(NC(=O)OCc2ccccc2)C(C)C)cc1OC (stereo unspecified)	-3	-25	-2.2%	0.3	4	-4.9
Cc1ccc(-n2nnnc2SCC(=O)NNC(=O)c2ccco2)c(C)c1	-9	-7	0.0%[38.3 µM]	-0.1	-3	-0.2
CCn1c(C)nc2cc(C(=O)N/N=C/c3ccc(O)cc3)ccc21	-6	3	-1.2%	0.6	-3	0.7
CCCN(C(=O)c1cnccn1)c1c(N)n(Cc2ccccc2)c(=O)[nH]c1=O	-15	4	1.8%	0.2	4	-3.0
O=C(NCc1ccc2c(c1)OCO2)c1ccc(Br)cc1	.	-8	5.2%	.	6	-7.9
Cc1ccc(Cn2c(SCC(=O)Nc3cc(C)on3)nc3ccccc3c2=O)cc1	-7	3	4.3%	-0.6	0	0.7
COc1ccccc1NC(=O)c1c(NCc2ccc(OC)c(OC)c2OC)sc2c1CCCC2	0	.	-0.8%	0.3	.	.
COc1cccc(N2CC(C)Cn3c2nc2c3c(=O)n(CCN3CCOCC3)c(=O)n2C)c1 (stereo unspecified)	4	-23	-2.2%	0.7	6	-3.1
COc1ccc(NC(C#N)c2ccccc2OCc2ccccc2)cc1 (stereo unspecified)	-25	-16	5.5%	-0.1	5	-1.8
O=C(NCCc1csc(-c2ccccc2)n1)c1c(F)cccc1Cl	2	-7	-0.1%	2.8	-2	4.4
CC(C)(C)c1cc(CCC(=O)NNC(=S)NC(=O)c2ccccc2)cc(C(C)(C)C)c1O	-1	-15	2.6%	15	-10	-14
COc1ccc(OC)c(-c2csc(N(Cc3ccco3)C(=O)c3ccco3)n2)c1	-26	-4	5.5%	-1.0	0	-2.2
CCOc1ccc(NC(=O)CC2C(=O)Nc3ccccc3N2C(=O)c2ccccc2)cc1 (stereo unspecified)	-14	0	0.4%	-0.9	-4	-2.4
Cc1ccc(CN2CCN(CC(=O)NCc3ccccc3Cl)C2=O)cc1	-16	.	1.4%	-1.2	.	.
O=C(NCc1cccnc1)C(=O)NCC1OCCN1S(=O)(=O)c1ccc(F)cc1 (stereo unspecified)	2	4	-0.9%	-0.1	-5	-1.7
CCCN1C(=O)C(O)(CC(=O)c2ccc(OC)c(OC)c2)c2ccccc21 (stereo unspecified)	-9	.	-0.8%	0.2	.	.
Cc1nc(N2CCCCC2)nc(N2CCCCC2)c1C=O	5	-8	1.2%	3.3	-6	1.3

By substructure, the entries above containing a tert-butyl group (two)
mol	TRPML1 inh	D2 PAM	PINK1 modulator	TRPML1 agonist	Six1-Eya2 blk	D2 agonist
Cn1c(=O)n(C)c2cc(N3CCCCC3)c(NC(=O)c3ccc(C(C)(C)C)cc3)cc21	-11	.	0.1%	-1.0	.	.
CC(C)(C)c1cc(CCC(=O)NNC(=S)NC(=O)c2ccccc2)cc(C(C)(C)C)c1O	-1	-15	2.6%	15	-10	-14

2 successive compounds from above, quoted:
mol	TRPML1 inh	D2 PAM	PINK1 modulator	TRPML1 agonist	Six1-Eya2 blk	D2 agonist
Cc1cc(=O)oc2c3c(ccc12)OC/C3=N/N	.	-15	1.4%	.	2	-6.0
COc1ccc(CCNC(=O)C(NC(=O)OCc2ccccc2)C(C)C)cc1OC (stereo unspecified)	-3	-25	-2.2%	0.3	4	-4.9

New compounds follow:
mol	TRPML1 inh	D2 PAM	PINK1 modulator	TRPML1 agonist	Six1-Eya2 blk	D2 agonist
O=S(=O)(NCC(c1cccnc1)N1CCOCC1)c1cccs1 (stereo unspecified)	-16	-7	1.4%[38.3 µM]	-0.5	4	-1.1
COc1ccc(CN(Cc2ccc(C(=O)O)cc2)C(=S)Nc2ccc(C)cc2)cc1OC	-12	3	0.2%	-0.1	8	4.3
Cc1ccc(NC(=O)CSc2nnc(-c3ccccc3Br)o2)cc1C	-15	-19	2.6%	0.6	4	-4.1
CCSc1ccccc1C(=O)NC1CCCCC1	-7	-7	-1.6%	0.6	23	-6.7
Cc1cc(C)cc(NC(=O)CSc2nnc(COc3ccccc3Cl)o2)c1	4	.	0.0%	4.4	.	.
CCNC(=O)C(=O)NCC(c1cccs1)S(=O)(=O)c1ccc(C)cc1 (stereo unspecified)	-6	-28	-0.6%	-0.3	-9	-1.6
CC(=O)N(c1nnc(-c2cccc(C)c2)s1)C1CCCC1	-1	-4	2.5%	4.7	2	-3.1
CC(C)C(=O)Nc1cccc(NC(=O)c2ccc(Cl)cc2Cl)c1	15	-18	-1.2%	0.8	-8	-3.1
CCNc1nc(CN2CCOCC2)nc2sc3c(c12)CCC3	17	-8	-0.1%	-0.4	2	-2.0
O=C(c1ccc(F)cc1Cl)N1CCN(S(=O)(=O)c2cccs2)CC1	11	-1	-0.9%	-0.4	16	-5.1
CC(C)C(=O)Nc1cc2c3c(c1)CCN3C(=O)CC2	-1	-1	0.0%	2.0	6	-1.4
CCCCC(Sc1nc(N)c(NC(=O)c2ccco2)c(=O)[nH]1)C(=O)O (stereo unspecified)	-11	1	2.6%	-0.5	3	0.8
O=C(Nc1ccc2ccccc2c1)c1ccccc1F	16	-3	-1.3%	1.0	5	-2.2
Cc1cc(NC(=O)CN2C(=O)N(C)C3(CCCCC3)C2=O)ccc1Br	16	0	2.3%	0.5	2	-1.7
O=CC1=C(N2CCOCC2)/C(=C\c2ccccc2)CC1	6	-3	-0.9%	0.2	-2	-3.2
O=C(Nc1ccc(S(=O)(=O)Nc2nccs2)cc1)c1ccc(F)cc1	11	-2	1.7%	0.6	-7	-0.4
COc1ccc(Cl)cc1N(C)C(=O)Cc1noc2ccc(C)cc12	-5	.	-0.5%	2.1	.	.
OCCN1CCN(c2ncnc3c2sc2nc(N4CCOCC4)c4c(c23)CCC4)CC1	5	-29	5.6%[38.3 µM]	-0.7	?	0.0
Cc1ccccc1-c1nnn(CC(=O)Nc2ccc3c(c2)OCCO3)n1	12	-2	11%	0.2	7	-5.5
CC1(c2ccc(Cl)cc2)NC(=S)N2C1NC(=S)N2c1ccccc1 (stereo unspecified)	-1	-6	0.4%	0.6	-5	0.0
O=C(CN1C(=O)NC2(CCCCC2)C1=O)NCCCSc1ccccc1	?	0	0.6%	2.4	4	1.5
Nc1cc(N)nc(SCc2ccc(Cl)cc2)n1	-26	-1	-0.3%	-1.3	2	-0.1
COc1ccc(S(=O)(=O)NCCCn2ccnc2)cc1Cl	14	-1	1.8%	0.5	0	-3.7
C[C@@H]1CN([C@H](C)CO)C(=O)c2cc(NC(=O)Nc3ccc(C(F)(F)F)cc3)ccc2O[C@H]1CN(C)S(=O)(=O)c1cccs1	-3	-12	0.2%	0.6	-6	4.9
Cc1ccc2c(c1)C1CN(C)CCC1N2C(=O)c1ccccc1NS(=O)(=O)c1ccc(F)cc1C (stereo unspecified)	-9	-18	0.9%	0.6	-2	-3.3
COC(=O)c1ccccc1NC(=O)CSc1nc2sc3c(c2c(=O)[nH]1)CCCC3	-14	.	0.1%	-0.3	.	.
CC1(C(=O)Nc2ccc3c(c2)OCCO3)CCN1C(=O)Cc1cc(F)ccc1F (stereo unspecified)	.	-1	-0.5%	-1.1	-3	-2.1
COC(=O)CCC(=O)OC1(C)C(=O)C2=CN(CCc3ccccn3)C(c3ccc(OC)cc3)=CC2=C(Br)C1=O (stereo unspecified)	-1	7	-0.6%	1.9	-3	2.9
COc1ccc(CCNC(=O)c2cc(S(=O)(=O)N(C)C)ccc2N2CCCC2)cc1OC	-21	-8	0.2%	-0.2	-3	0.8
COc1ccccc1N1CCN(CC(=O)N2CCCC2)CC1	26	-15	-1.2%	1.5	8	-1.5
O=C1c2ccccc2C(c2nnnn2-c2ccc3c(c2)OCCO3)N1CCc1ccc(O)cc1 (stereo unspecified)	.	.	0.4%	-0.2	2	.
Cc1ccc(S(=O)(=O)N2CCCCC2)cc1C(=O)N(C)CC(=O)Nc1cccc(F)c1	-16	4	-1.4%	-0.7	2	-0.1
COc1ccc(-n2c(=O)c3c4c(sc3n(CC(=O)N3CCCCC3C)c2=O)CCC4)c(OC)c1 (stereo unspecified)	-3	.	1.1%	-0.5	.	.
O=C1CC2CS(=O)(=O)CC2N1C1CCCCC1 (stereo unspecified)	8	-2	1.6%	0.3	1	-1.6
CN(CC(=O)Nc1ccccc1Cl)C(=O)COC(=O)C1CCN(c2ccc(C(F)(F)F)cn2)CC1	5	18	1.7%	0.3	-6	-4.0
Cc1c(Cl)cccc1NC(=S)NCCC(C)C	-13	-10	-1.5%	-0.6	4	-1.2
O=C(Nc1ccn(CCCNCCN2CCOCC2)c(=O)n1)OCc1ccccc1	2	.	-0.6%	-0.5	7	-0.8

From PubChem
